Compound activity: PubChem BioAssay, National Center for Advancing Translational Sciences (NCATS)
Rango-impB inh: inhibitors of Rango-importin beta complex formation | 340,000 tested, 0.031% active | Rango CFP/YFP FRET sensor + importin beta, 45 min | Q14974 | Potency, µM (series often up to 92.2 µM), for inactives: at the highest dose inhibition of complex formation; active = rising FRET ratio curve, often small or poorly fitted; inconclusive = mostly compound fluorescence or quenching in the first reads; inactive = flat curves in all reads;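 also: potency is read from the fitted curve at half-maximal effect; 0% = DMSO wells and 100% = buffer wells lacking importin beta; nearly all actives have a fitted effect of over 15% in size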
Target sequence (Q14974 whole entry, looked up): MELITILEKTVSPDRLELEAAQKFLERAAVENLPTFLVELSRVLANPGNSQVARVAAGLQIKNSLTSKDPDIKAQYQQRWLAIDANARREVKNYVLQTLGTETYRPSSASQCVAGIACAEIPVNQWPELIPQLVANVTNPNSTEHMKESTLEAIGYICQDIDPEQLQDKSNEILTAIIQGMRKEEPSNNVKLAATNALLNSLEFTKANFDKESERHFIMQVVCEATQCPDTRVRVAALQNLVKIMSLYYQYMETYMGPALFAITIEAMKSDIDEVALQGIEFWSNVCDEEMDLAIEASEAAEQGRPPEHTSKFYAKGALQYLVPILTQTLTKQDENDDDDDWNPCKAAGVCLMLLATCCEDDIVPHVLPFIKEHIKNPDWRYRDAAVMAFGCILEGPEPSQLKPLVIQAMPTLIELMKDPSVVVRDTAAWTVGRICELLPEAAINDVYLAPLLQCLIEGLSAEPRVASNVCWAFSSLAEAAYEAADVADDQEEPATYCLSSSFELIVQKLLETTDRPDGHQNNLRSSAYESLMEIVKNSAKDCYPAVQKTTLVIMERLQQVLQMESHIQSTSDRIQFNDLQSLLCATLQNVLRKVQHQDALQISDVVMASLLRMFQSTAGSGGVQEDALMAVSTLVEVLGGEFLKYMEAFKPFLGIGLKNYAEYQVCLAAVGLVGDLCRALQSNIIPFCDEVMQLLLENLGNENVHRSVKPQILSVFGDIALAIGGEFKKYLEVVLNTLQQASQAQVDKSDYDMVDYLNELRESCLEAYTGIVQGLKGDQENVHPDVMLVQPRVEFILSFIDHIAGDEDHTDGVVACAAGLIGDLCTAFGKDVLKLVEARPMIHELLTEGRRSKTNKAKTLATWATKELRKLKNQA
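FRET biosensor (snurportin 1 IBB flanked by EYFP and cerulean), 50 nM, with compound 5 min, then 0.125 microM importin beta in PBS, 1 mM DTT, 0.02% Tween-20, 0.1% BSA. CFP/YFP ratio read after 45 min at room temperature; pre-read flags interference.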
GLA inh pH 4.5: alpha-galactosidase A (human) inhibition, pH 4.5 | purified enzyme, 4-MU-alpha-Gal fluorescence, pH 4.5 | activity change, negative = inhibition, % at 105 µM | 230,000 tested, under 10 active | AID 1467; inconclusive = small, poorly fitted or top-dose-only inhibition, or a rising curve; inactive = flat fitted curve, though single readings scatter; no compound was filed as active;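 also: 0% = full activity with enzyme and -100% = basal without enzyme; dose as in the result columns while the protocol names 77 µM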
miR-21 reporter: raises the signal of a miR-21 reporter. HeLa miR-21 FLuc reporter, luciferase, 48 h. Potency, µM (doses to about 38.3 µM), for inactives: at the highest dose reporter change, positive = more light. 340,000 tested, under 10 active. AID 2288; active = well fitted rising curve with a large enough effect; inconclusive = small, poorly fitted or top-dose-only effect; inactive = no such curve, though single readings can be large or run the other way;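 also: % of control where 0% means no effect; miR-21 action dims this reporter so a rising signal means less miR-21 action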
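Using DMEM plus 10% FBS, HeLa miR-21-FLuc cells are incubated with test compounds (final up to about 40uM) for 48 hours; firefly luciferase signal is then imaged following reagent-mediated lysis.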
Rango release inh: prevents RanGTP from dissociating the Rango-importin beta complex. O95149+P62826. Biochemical FRET Rango-importin beta, RanGTP-induced dissociation. Potency, µM (highest dose often 46.1 µM), for inactives: top-dose activity change, negative = inhibition. 340,000 tested, 0.071% active; active means falling FRET ratio curve, often poorly fitted, with flat reads before Ran was added; inconclusive means other falling curves, or compound fluorescence or quenching; inactive means flat or rising ratio curve;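 also: potency is read from the fitted curve at half-maximal effect; % of control where 0% means no effect; nearly all actives have a fitted effect of over 45% in size; -100% = wells without RanGTP and RCC1; the record marks most hits as doubtful in a second field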
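Recombinant Rango FRET biosensor (EYFP–snurportin 1 IBB–cerulean CFP10) at 0.1 uM premixed with 0.25 uM importin beta in PBS, 1 mM DTT, 0.02% Tween-20, 0.1% BSA. Compound added 5 min; RanGTP-RCC1 (0.6 uM Ran, 2 mM GTP, 0.2 uM RCC1) then triggers release, read at 45 min.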
The depositor's hits bear a star; ? = inconclusive; nt = not tested or not shown; & = joins results of further samples. Only part of the results is shown, so the mix of outcomes need not match the whole.

Each structure is followed by: Rango-impB inh, GLA inh pH 4.5, miR-21 reporter, Rango release inh
O=C(NCCc1cccs1)c1ccc(CS(=O)Cc2ccc(Cl)cc2)o1 (configuration not stated)
  -2.0%, nt, -1.6%, -7.6%
COc1ccc(-c2n[nH]c(=S)n2/N=C/C=C/c2ccccc2OC)cc1
  -0.3%, 0.0, -6.9%, 0.1%
CC1(C)C2CCC1(CS(=O)(=O)Nc1cccc(S(N)(=O)=O)c1)C(=O)C2 (configuration not stated)
  7.9%, -7.6, -1.9%, -1.2%
O=C(CN1CCN(S(=O)(=O)c2ccc(Cl)cc2)CC1)NCC1(N2CCOCC2)CCCCC1
  -1.8%, nt, nt, -12.5%
CCN(CC)c1ccc(NC(=O)CSc2nnc3nc(C)cc(C)n23)cc1
  -1.3%, -10.4, -19.6%, 22.6%
O=C(Nc1nc(-c2ccc(F)c(F)c2)cs1)C1=COCCO1
  4.1%, nt, nt, -25.2%
CC1(C)Cc2c(sc3c2C2=NCCN2C=N3)CS1
  ?, -5.6, 1.3%, ?
CCOC(=O)C1=C(CS(=O)(=O)c2ccc(C)c(C)c2)NC(=O)NC1c1ccc(O)cc1 (configuration not stated)
  -2.9%, -2.1, -0.2%, -22.0%
Cc1ccc(S(=O)(=O)NC(Cc2ccccc2)C(=O)NN)cc1 (configuration not stated)
  -3.1%, nt, -0.2%, 1.2%
COC(=O)Cn1cnc2c(oc3ccccc32)c1=O
  0.1%, nt, -23.8%, 2.1%

Next part.
Each structure is followed by: Rango-impB inh, GLA inh pH 4.5, miR-21 reporter, Rango release inh
CCOC(=O)c1c(C)[nH]c(C(=O)CSc2nc3ccccc3o2)c1C
  0.5%, -0.2, -3.8%, 0.4%
Cc1cc(C)c(C)c(S(=O)(=O)NCc2ccco2)c1C
  nt, -0.7, -8.2%, nt
COc1ccc(NC(=O)CNC(=O)Cn2c(C)cc3ccccc3c2=O)c(OC)c1
  0.3%, -9.4, -8.5%&-1.5%, 1.3%
O=C(NCc1cccnc1)c1ccc(COc2ccc3c(c2)CCC3)o1
  -9.2%, -10.6, ?, -2.6%
CCOC(=O)c1cc2c(=O)c3cc(C)ccc3oc2nc1C
  1.2%, nt, -63.7%, 9.9%
COc1ccc(C(=O)c2coc3ccc(O)c(CN4CCCC4)c23)cc1
  0.1%, -7.8, -1.5%, 5.2%
Nc1nc(NCc2cccs2)nn1-c1ccccc1
  ?, nt, nt, 7.4%
N#CC1=C(SCC(=O)Nc2ccccc2)NC(=O)CC1c1ccc(O)cc1 (configuration not stated)
  -2.4%, -2.7, -49.8%, 25.7%
CCCCc1nnc(NC(=O)C2CC(=O)N(c3ccc4c(c3)OCCO4)C2)s1 (configuration not stated)
  -2.2%, -9.1, -0.4%, 5.6%
CC(=O)Nc1ccc(OCC(=O)NCCc2ccc(Cl)cc2)cc1
  1.4%, -0.6, -4.0%, 1.2%

Following part.
Each structure is followed by: Rango-impB inh, GLA inh pH 4.5, miR-21 reporter, Rango release inh
Cc1nc(N2CCC(C)CC2)c2c(C)c(C(=O)Nc3ccc(C(F)(F)F)cc3)sc2n1
  0.9%, 22.2, -6.0%, 11.2%
Cc1ccc(-n2cccn2)c(CN2CCCC(C(=O)c3ccc4c(c3)OCO4)C2)c1 (configuration not stated)
  6.7%, 3.3, 21.6%, -12.5%
COc1ccccc1N1CCN(CC(O)COc2ccc3c(c2)CCC3)CC1 (configuration not stated)
  2.0%, -2.3, -3.1%, -11.4%
Cc1ccc(C(=O)Cn2nnc3ccccc32)cc1
  -0.5%, 14.5, -63.9%, 1.6%
CN(CC(=O)NCc1cccs1)S(=O)(=O)c1cccc2nsnc12
  0.9%, -1.7, -1.2%, 0.6%
NC(=S)N/N=C1\c2ccccc2-c2c(C(=O)O)cccc21
  4.4%, nt, -0.1%, -20.0%
CN(C)CC(C)(C)CNS(=O)(=O)c1ccc(Cl)s1
  -1.5%, -1.4, -2.5%, 1.5%
COc1ccc(CNC(=O)Cn2nc(C(F)(F)F)c3c2CCC3)cc1
  ?, -5.7, -4.7%, 0.7%
CCSc1ncnc2c(C#N)c3n(c12)CCCCC3
  -1.9%, -5.0, -23.5%, 4.3%
COc1cc(OC)cc(C(=O)NC2CCCN(Cc3ccc(Cl)cc3)C2)c1 (configuration not stated)
  0.6%, nt, 23.2%, -5.4%

Grouped by structure, the entries above containing four or more nitrogen atoms (8)
Each structure is followed by: Rango-impB inh, GLA inh pH 4.5, miR-21 reporter, Rango release inh
COc1ccc(-c2n[nH]c(=S)n2/N=C/C=C/c2ccccc2OC)cc1
  -0.3%, 0.0, -6.9%, 0.1%
O=C(CN1CCN(S(=O)(=O)c2ccc(Cl)cc2)CC1)NCC1(N2CCOCC2)CCCCC1
  -1.8%, nt, nt, -12.5%
CCN(CC)c1ccc(NC(=O)CSc2nnc3nc(C)cc(C)n23)cc1
  -1.3%, -10.4, -19.6%, 22.6%
Nc1nc(NCc2cccs2)nn1-c1ccccc1
  ?, nt, nt, 7.4%
CCCCc1nnc(NC(=O)C2CC(=O)N(c3ccc4c(c3)OCCO4)C2)s1 (configuration not stated)
  -2.2%, -9.1, -0.4%, 5.6%
Cc1nc(N2CCC(C)CC2)c2c(C)c(C(=O)Nc3ccc(C(F)(F)F)cc3)sc2n1
  0.9%, 22.2, -6.0%, 11.2%
CN(CC(=O)NCc1cccs1)S(=O)(=O)c1cccc2nsnc12
  0.9%, -1.7, -1.2%, 0.6%
CCSc1ncnc2c(C#N)c3n(c12)CCCCC3
  -1.9%, -5.0, -23.5%, 4.3%

(further entries)
Each structure is followed by: Rango-impB inh, GLA inh pH 4.5, miR-21 reporter, Rango release inh
O=C(NC1CC2CCCC(C1)N2Cc1ccco1)NC12CC3CC(CC(C3)C1)C2 (configuration not stated)
  ?, -0.2, -3.3%, -17.1%
CCC(C)c1ccccc1N1CC(C(=O)Nc2ccccc2N2CCCC2)CC1=O (configuration not stated)
  -0.3%, nt, 7.9%, -11.8%
O=C(CN1CCN(c2ncccn2)CC1)N1CCCC1
  2.4%, -9.0, -0.3%, 12.2%
Cc1nc2nc(C)c(NS(=O)(=O)c3ccc(Cl)cc3)c(=O)n2[nH]1
  -1.5%, nt, -0.2%, 2.0%
COc1cc(NC(=O)c2ccc3c(c2)OCO3)ccc1NC(=O)C(C)C
  -0.4%, -9.0, -25.9%, 2.8%
O=C1c2ccccc2C(=O)N1CN(C(=O)COc1ccc(Cl)cc1Cl)c1cccc(F)c1
  0.7%, -2.4, -12.3%, 0.4%
COc1cc(NS(=O)(=O)c2ccc(NC(=O)COc3ccc(C)cc3)cc2)nc(OC)n1
  1.7%, 5.1, -1.7%, 7.9%
COC(=O)C1=C(C)NC(=O)CC1c1cccc(OC)c1OC (configuration not stated)
  -0.4%, 2.2, 1.5%, -3.2%
COc1ccc(-n2nc(C(=O)NCC(=O)N3CCOCC3)c3ccccc3c2=O)cc1Cl
  6.6%, nt, -6.2%, -3.2%
Cc1ccccc1-c1ccccc1CN1[C@@H](C(C)C)COCCS1(=O)=O
  0.3%, nt, nt, -2.9%

(list continues)
Each structure is followed by: Rango-impB inh, GLA inh pH 4.5, miR-21 reporter, Rango release inh
CC(C)C(=O)NNc1ccccc1
  2.2%, -2.0, 8.4%, -2.6%
CCOC(=O)C(Oc1ccc(=O)n(-c2ccccc2)n1)C(C)=O (configuration not stated)
  -1.3%, 3.9, -5.3%, 0.8%
O=c1c2ccccc2oc2nc3n(c(=O)c12)CCCS3
  -0.9%, 4.1, -1.2%, -5.1%
CC1=CC(C)[C@@H]2COC(c3ccc(O)cc3)[C@H]1C2C (some centres not stated)
  -0.1%, nt, -9.7%, -6.2%
Cc1c(C(=O)O)oc2ccc3c(c12)C(O)CC(C)(C)O3 (configuration not stated)
  -0.7%, nt, -2.7%, -8.2%
Cc1nc(-c2ccc(-n3nncc3-c3ccco3)cc2)cs1
  -0.9%, -7.7, -16.3%, 12.2%
CCOc1ccc(OCCCC(=O)NC2=NCCS2)cc1
  -1.4%, -2.2, 0.5%, 0.3%
Nc1c(C(=O)NCc2ccccc2)nnn1Cc1cccc(Cl)c1
  1.9%, -1.1, 16.4%, -2.9%
Cc1ccc2nc(N(CCCN(C)C)C(=O)c3ccc(S(=O)(=O)N4CCOCC4)cc3)sc2c1
  3.5%, nt, -3.8%, 2.8%
O=[N+]([O-])c1ccc(O)c(Nc2ncnc3ccccc23)c1
  3.5%, -0.5, -15.9%, -1.5%

(list continues)
Each structure is followed by: Rango-impB inh, GLA inh pH 4.5, miR-21 reporter, Rango release inh
NC(=O)c1ccc(NC(=O)COc2cccc3c2CCNC3=O)cc1
  -3.6%, nt, nt, 27.7%
COc1cc(SC)ccc1C(=O)Nc1cccc(S(=O)(=O)NC2=NCCCCC2)c1
  -1.2%, nt, nt, -0.1%
COCCCNC(=O)CN1CCN(Cc2ccc(Cl)cc2)C1=O
  -0.9%, -2.5, -5.1%, 1.0%
C[C@H](CO)N1C[C@H](C)[C@H](CN(C)Cc2ccc(Oc3ccccc3)cc2)Oc2ccc(NC(=O)Nc3cccc4ccccc34)cc2CC1=O
  ?, nt, nt, 19.9%
CC(C)CC(NC(=O)OC(C)(C)C)C(=O)NC(C(=O)NC(C)C(N)=O)C(C)C (configuration not stated)
  2.9%, -0.1, 1.2%, 1.7%
CC(C)Cn1c(N)c(C(=O)COC(=O)Cc2cccs2)c(=O)n(C)c1=O
  -0.2%, nt, -0.2%, 4.9%
COc1cccc(NC(=O)C/C(C)=N/NC(=O)C2CCCCC2)c1
  -0.7%, nt, -12.1%, 5.8%
CC1CCCCN1C(=O)/C(=C\c1ccccc1)c1ccccc1 (configuration not stated)
  1.2%, -6.9, 0.6%, -4.7%
Cn1c(SCc2nnc3n2CCCCC3)nc2ccccc21
  3.6%, -10.1, -2.4%, -8.8%
O=c1nc(-c2ccccc2)nc(-c2ccccc2)[nH]1
  0.4%, -6.9, -15.5%, 8.5%

The results go on:
Each structure is followed by: Rango-impB inh, GLA inh pH 4.5, miR-21 reporter, Rango release inh
N#C/C(=C\C=C\c1ccccc1[N+](=O)[O-])C(=O)NCc1ccccc1
  -5.0%, nt, ?, 0.1%
COc1ccc(OCC(O)Cn2c(N3CCCCC3)nc3c2c(=O)n(C)c(=O)n3C)cc1 (configuration not stated)
  3.5%, nt, -7.2%, -15.3%
NS(=O)(=O)c1ccc(CCNC(=O)CSCC(=O)Nc2ccc(Cl)cc2)cc1
  -4.2%, nt, nt, -3.2%
COc1ccc(/C=N/NC(=O)CCc2nc3ccccc3[nH]2)cc1
  -0.6%, -1.1, -1.9%, 3.3%
COc1ccc2nc(NC(=O)c3cccnc3SC)sc2c1
  -3.6%, 6.9, -61.5%, 17.0%
CCN(CC)Cc1c(O)ccc2c(C)c(CC(=O)OC)c(=O)oc12
  ?, ?, 4.7%, ?
COc1ccc(C(=O)NCC(=O)NCCc2c[nH]c3ccccc23)cc1OC
  -0.8%, 1.7, -1.1%, -10.2%
COc1ccc(Cl)cc1S(=O)(=O)N1CCN(Cc2ccc3c(c2)OCO3)CC1
  -0.8%, -13.4, -2.9%, 14.1%
Cc1ccc(Nc2nc(C(=O)NCc3ccco3)cs2)cc1
  -0.9%, -0.2, -9.8%, 11.8%
O=C(CCSCc1cccc(F)c1)NCCc1ccccc1
  1.7%, nt, -8.1%&-17.9%, 29.8%

(next part)
Each structure is followed by: Rango-impB inh, GLA inh pH 4.5, miR-21 reporter, Rango release inh
CC(C)(C)C(=O)Nc1cccc2[nH]ncc12
  6.2%, 7.1, 4.0%, 22.8%
CCCCC1CCC(c2nc(-c3cccnc3)no2)CC1 (configuration not stated)
  -1.4%, -3.4, -0.4%, -4.3%
CCOc1ccccc1CN1CCN(C2CCC2)CC1CCO (configuration not stated)
  -0.8%, nt, 0.1%, -0.3%
C=C1CSc2nc(=O)c3c4c(sc3n21)CCC4
  0.8%, 8.4, 0.0%, 5.3%
